Hsc70 = small molecules displacing fluorescent ligand from Hsc70 – biochemical, fluorescence polarization, primary screen (AID 568). one-dose displacement, % at 20 µM; IC50 in µM for titrated hits. 83,000 tested, under 10 active. Hsc70 fluorescence polarization, probe displacement; higher % means a stronger effect; strong numbers were not always called active;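 active = displacement above 50% without optical interference and an IC50 on retest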;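 note: ATPase domain with a fluorescein-tagged ATP probe; 0% = vehicle and 100% = excess ADP; read after one hour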
MT1-MMP reporter = MT1-MMP gene expression reporter suppression – cell-based, luciferase reporter, luminescence (AID 618) | MT1-MMP promoter luciferase reporter cells, luminescence | calls from a first round at 10 µM; hits with a dose series show EC50 in µM | hit rate 0.62% among 87,000;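 active = over half of the reporter light lost at 10 µM or EC50 under 50 µM; inactive = the rest and hits that failed the dose series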;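 note: actives suppress MT1-MMP promoter-driven transcription so potencies describe inhibitors; HT1080 fibrosarcoma cells; overnight exposure; toxic or luciferase-blocking compounds were not removed from the actives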
WNV NS2B-NS3 inh = blocks West Nile virus NS2B-NS3 protease activity. hit rate 0.18% among 65,000. z-score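 (tested at a level between 10 and 100 µM)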. AID 577. WNV NS2B-NS3 protease, fluorogenic substrate Ex360/Em465; stronger effect = lower value;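 active = z-score at -3 or under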;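 note: score is relative to mean and spread of the compound wells of a plate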
Target sequence (P06935 1371-1501 limits assumed): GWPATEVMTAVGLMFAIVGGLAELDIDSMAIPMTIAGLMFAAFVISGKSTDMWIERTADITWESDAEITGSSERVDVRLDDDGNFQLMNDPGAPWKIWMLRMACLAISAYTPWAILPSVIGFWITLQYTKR
Target sequence (P06935 1502-1679 limits assumed): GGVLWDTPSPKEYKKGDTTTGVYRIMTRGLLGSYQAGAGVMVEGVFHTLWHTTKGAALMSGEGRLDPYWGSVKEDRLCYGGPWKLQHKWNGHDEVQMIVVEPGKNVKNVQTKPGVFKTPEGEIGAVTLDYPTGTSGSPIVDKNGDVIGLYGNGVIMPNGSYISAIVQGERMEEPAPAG
* marks the source's active call; other numbers are inactive results; i = inactive; . = not tested or not shown; + = active, no number.

SMILES	Hsc70	MT1-MMP reporter	WNV NS2B-NS3 inh
O=C(NC1CCCCC1)C(c1ccncc1)N(C(=O)Cn1nnc(-c2cccs2)n1)C1CCCC1 (stereo unspecified)	1.7%	i	1.8
COc1ccc(C(=O)N(CN2CCCC2=O)c2cc(C)on2)cc1OC	4.1%	i	-0.92
C=C(C)c1cccc(C(C)(C)NC(=O)N(Cc2ccccc2)Cc2ccco2)c1	2.6%	i	.
O=C(CN1CCOCC1)Nc1ccccc1-c1ccccc1	-1.7%	i	-1.1
CCCS(=O)(=O)NCc1cn2cccc(C)c2n1	2.6%	i	0.17
Cc1ccc(-c2cc(C(F)F)nc(N3CCC(C)CC3)n2)cc1	-5.6%	i	0.37
C=C(C)CSc1nc2nc(C)c(Br)cc2[nH]1	2.7%	i	.
O=C(CSc1nnc(COc2ccc3c(c2)CCCC3)o1)Nc1ccc(F)cc1	8.2%	i	-0.3
COc1ccc(N(C(=O)c2cccc(OC)c2OC)C2C=CS(=O)(=O)C2)cc1 (stereo unspecified)	7.2%	i	-1.2
CSc1cc(-c2ccccc2)n(Cc2c(Cl)cccc2Cl)c(=O)c1C#N	0.3%	+	.
Cc1cc(C)n(CC2CC(=O)N(c3ccc(Cl)c(Cl)c3)C2=O)n1 (stereo unspecified)	-4.5%	i	-1
CCc1nnc(NC(=O)CSc2nnc(-c3ccc(S(=O)(=O)N4CCCC4)cc3)n2CC)s1	-0.8%	i	.
Cc1ccc(N2CC(C(=O)Nc3nccs3)CC2=O)cc1 (stereo unspecified)	2.2%	i	0.2
Cc1cc(C)nc(-n2nc(C)cc2NC(=O)CN2CCc3ccccc3C2)n1	7.2%	i	0.78
CCOC(=O)c1ccc2c(c1)nc(SC/C(O)=C(\C#N)c1nc3ccccc3[nH]1)n2CC	-7.4%	i	1.3
Cc1onc(-c2ccccc2)c1C(=O)Nc1cccnc1	-6.2%	i	-1.5
CC(=O)N1CCc2c(sc(NC(=O)CN3C(=O)CCC3=O)c2C(N)=O)C1	5.8%	i	-0.25
CCOC(=O)c1cccc(NC(=O)CN(C)S(=O)(=O)c2cnc[nH]2)c1	-3.0%	i	0.13
CS(=O)(=O)N(Cc1ccc(Cl)cc1)c1ccc(C(=O)N2CCN(c3ccccc3)CC2)cc1	-0.7%	i	.
Cc1ccc(-c2ccc(=O)n(CC(=O)NCCN3CCCCC3C)n2)cc1 (stereo unspecified)	-2.0%	i	-0.02
COc1ccc(C(=O)C2CCCCC2=O)cc1 (stereo unspecified)	-1.8%	i	0.44
CCN(CC)S(=O)(=O)c1cccc(C(=O)Nc2ccccc2)c1	-9.8%	i	-0.37
Cc1sc2ncnc(N3CCN(CCOc4ccc(Cl)cc4)CC3)c2c1C	4.5%	i	.
O=C1CN(C(=O)c2ccc(Br)o2)C(c2ccccc2)c2cc(Br)ccc2N1 (stereo unspecified)	5.2%	i	-0.65
O=C(OCC(=O)N1CCc2ccccc21)c1cccnc1Cl	2.7%	i	.
Cc1onc(-c2ccccc2Cl)c1C(=O)Oc1cc(N)n(S(=O)(=O)c2ccc(F)cc2)n1	1.6%	i	-0.37
CC(C)c1ccc(N(CC(=O)Nc2ccc(S(=O)(=O)N3CCOCC3)cc2)S(C)(=O)=O)cc1	4.0%	i	.
COc1cc(-c2nnn(CC#N)n2)ccc1OCc1ccccc1	0.5%	i	1.9
O=C(CCC(=O)c1cccs1)OCc1nnc(-c2ccccc2)o1	0.6%	i	-0.52
CCn1c(CSc2nnc(C)n2-c2ccccc2)nc2cc(S(=O)(=O)N(C)C)ccc21	5.2%	i	-0.51
CCN(CC)S(=O)(=O)c1cc(C(=O)N2CCc3ccccc32)ccc1Cl	1.6%	i	.
Cc1cc(C)cc(NC(=O)NC2CCN(CC(=O)Nc3c(C)cc(C)cc3C)CC2)c1	5.3%	i	.
COCc1cc(=O)[nH]c(/N=C(\N)Nc2ccc(C)cc2)n1	2.0%	i	-2
Cc1ccc(N(C(C)C(=O)Nc2ccc(S(=O)(=O)N3CCOCC3)cc2)S(C)(=O)=O)cc1C (stereo unspecified)	1.8%	i	-0.35
COc1ccc(NC(=O)c2oc3ccccc3c2NC(=O)C(C)(C)C)cc1	1.0%	i	0.99
Cc1cc(OCC(C)C)ccc1/C(O)=C1/C(=O)C(=O)N(Cc2cccnc2)C1c1ccncc1 (stereo unspecified)	0.4%	i	.
O=C(Oc1ccccc1)c1ccc2nccnc2c1	2.9%	i	1.6
CCn1c(COc2cccc(C)c2)nnc1SCC(=O)Nc1cccc(C(=O)O)c1	-3.2%	i	0.58
C#CCN1C(=O)C2C(C(=O)NC)C3C=CC2(O3)C1C(=O)NCc1ccc(OC)cc1 (stereo unspecified)	49%	i	-1.1
COc1ccc(N2CCCn3c2nc2c3c(=O)n(CCCc3ccccc3)c(=O)n2C)cc1	-5.0%	i	-0.85
Cc1ccc(Oc2cc(C#N)c(C#N)cc2-n2nnc3ccccc32)cc1C	5.5%	i	.
CCc1ccc(Nc2nnc(SCc3cc(=O)n4ccsc4n3)s2)cc1	6.3%	i	.
O=C(NCc1cccs1)C1CCCN(c2ncccn2)C1 (stereo unspecified)	-0.6%	i	-0.88
CC(NS(=O)(=O)c1ccc(CCC(=O)NCc2cccnc2)cc1)c1ccccc1 (stereo unspecified)	6.0%	i	.
CCN(CC)S(=O)(=O)c1ccc2nc(NC(=O)c3cccs3)sc2c1	-9.7%	i	1.6

Part of the list above in a different format:
SMILES,Hsc70,MT1-MMP reporter,WNV NS2B-NS3 inh
CCN(CC)S(=O)(=O)c1cc(C(=O)N2CCc3ccccc32)ccc1Cl,1.6%,i,.
Cc1cc(C)cc(NC(=O)NC2CCN(CC(=O)Nc3c(C)cc(C)cc3C)CC2)c1,5.3%,i,.
COCc1cc(=O)[nH]c(/N=C(\N)Nc2ccc(C)cc2)n1,2.0%,i,-2
Cc1ccc(N(C(C)C(=O)Nc2ccc(S(=O)(=O)N3CCOCC3)cc2)S(C)(=O)=O)cc1C (stereo unspecified),1.8%,i,-0.35
COc1ccc(NC(=O)c2oc3ccccc3c2NC(=O)C(C)(C)C)cc1,1.0%,i,0.99
Cc1cc(OCC(C)C)ccc1/C(O)=C1/C(=O)C(=O)N(Cc2cccnc2)C1c1ccncc1 (stereo unspecified),0.4%,i,.

The list goes on:
SMILES	Hsc70	MT1-MMP reporter	WNV NS2B-NS3 inh
CCCCCc1nc2c(=O)[nH]c3ccccc3c2o1	-2.3%	i	0.74
COc1ccc(OC)c(CN2CCCC(C(=O)N3CCCCC3)C2)c1 (stereo unspecified)	-1.3%	i	-0.19
COC(=O)CN1C(=O)C(O)(CC(=O)c2ccc(C)o2)c2ccccc21 (stereo unspecified)	0.8%	i	-0.84
COc1cccc(C(=O)Nc2c3c(nn2-c2cccc(C)c2C)CS(=O)(=O)C3)c1OC	2.8%	i	1.4
CC(=O)Nc1ccc(NCC(O)COc2ccccc2)cc1 (stereo unspecified)	4.7%	i	1.3
CC(C(=O)Nc1ccc(C(=O)O)cc1)N1C(=O)c2ccccc2C1=O (stereo unspecified)	-1.6%	i	-1.6
O=C(O)c1cccc(N2C(=O)C3CC=CCC3C2=O)c1 (stereo unspecified)	3.1%	i	.
Cc1cc(C(=O)CSc2nnc(-c3cccnc3)n2-c2ccccc2F)c(C)n1C	-1.4%	i	-0.87
Oc1ccccc1-c1nc(N2CCCC2)c2ccccc2n1	14%	i	.
CCCS(=O)(=O)N1CCC(C(=O)NCCN2CCCC2)CC1	-4.1%	i	-0.65
CCS(=O)(=O)N1CCC(C(=O)NC2CCCCCCC2)CC1	1.1%	i	0.89
Cn1c(=O)oc2cc(S(=O)(=O)N3CCCC(C(=O)NCc4cccs4)C3)ccc21 (stereo unspecified)	1.0%	i	-1.2
COc1ccccc1OCC(O)CN1C(=O)NC(C)(C)C1=O (stereo unspecified)	-4.2%	i	-0.66
Cc1ccc(Nc2nc(N)nc(CSc3nnc(-c4ccncc4)o3)n2)cc1	3.0%	i	0.42
CCOC(=O)/C=C1\NC(=O)CS1	3.2%	i	-1.6
CN(C)c1ccnc(-n2cccc2/C=N/OCc2cccc(F)c2)c1C#N	-2.2%	i	.
Cc1cccc(NC(=O)C2CCCC2)c1	0.4%	i	.
COc1ccc(Cn2nnnc2C(c2cc3ccc(OC)cc3[nH]c2=O)N2CCCCCC2)cc1 (stereo unspecified)	-8.7%	i	0.24
COC(=O)c1ccc(Oc2c(C(F)(F)F)oc3c(CN4CCN(C)CC4)c(O)ccc3c2=O)cc1	-4.9%	i	.
O=C(CCCC(=O)N(CC(=O)NC1CCCC1)Cc1ccccc1)Nc1ccccn1	1.0%	i	-0.42
CC(=O)NC(CCS(C)(=O)=O)C(=O)Nc1nccs1 (stereo unspecified)	-0.9%	i	0.79
CCCCn1nnc(NC(=O)c2cc3ccccc3o2)n1	2.9%	i	1.4
CS(=O)(=O)N1N=C(c2ccc(Cl)cc2)CC1c1cccs1 (stereo unspecified)	-1.8%	i	.
CCOc1cccc(-c2nnc3sc(COc4ccc(C)cc4)nn23)c1	-5.3%	i	0.19
CC(=O)Oc1ccc2oc(/C=C/N(C)C)c([N+](=O)[O-])c2c1	-17%	i	.
Nc1[nH]c(=O)ncc1F	-3.8%	i	.
CCOC(=O)NC(Nc1sc2c(c1C(=O)OC)CCN(C)C2)(C(F)(F)F)C(F)(F)F	1.3%	i	-0.42
NC(=O)c1cnccn1	3.0%	i	-0.63
Cc1ccc2c(c1)N(CCCC(=O)NCCC1=CCCCC1)C(=O)CO2	2.4%	i	1.8
Cc1nnc2sc(-c3ccncc3)nn12	3.7%	i	0.5
COC(=O)CSC1=NS(=O)(=O)c2ccccc21	3.6%	i	1.4
CC(C)Sc1nnc2n(CCc3ccccc3)c(=O)c3c4c(sc3n12)COC(C)(C)C4	-0.1%	i	-1.5
COCC(=O)Nc1ccc(-c2cn3cccnc3n2)cc1	-4.6%	i	3.8
CCCn1c(SCC(=O)NCc2cccs2)nc2c1c(=O)n(C)c(=O)n2C	-0.6%	i	-0.56
CC1=CC(=NOC(=O)c2cccc([N+](=O)[O-])c2)C=C(C)C1=O	5.4%	i	.
C=CCNC(=S)NNC(=O)CCC(O)CCCCC (stereo unspecified)	6.8%	i	.
COC(=O)c1ccc(-c2nc3ccc(C)cc3o2)cc1	-6.4%	i	1.4
C=CCn1c(SCc2ccc(C#N)cc2)nnc1-c1ccc(C)cc1	-2.1%	i	.
O=S(=O)(c1cnc[nH]1)N1CCCCCC1	-2.2%	i	1.1
CCOC(=O)C1CCCN(C(=O)c2cnn3c(C(F)(F)F)cc(-c4ccccc4)nc23)C1 (stereo unspecified)	-1.3%	i	1
Cc1[nH]n(C(N)=S)c(=O)c1C(c1ccccc1)C(C#N)C#N (stereo unspecified)	-3.0%	i	1.7
CCS(=O)(=O)NC(C)C(c1cccs1)N1CCN(C)CC1 (stereo unspecified)	5.7%	i	-0.55
Cc1sc2nc(C3CC3)nc(SCC(=O)NCc3ccco3)c2c1C	-0.5%	i	0.72
O=C(O)CSc1c[nH]c2ccccc12	2.2%	i	.
Cc1c(Cl)cccc1-n1c(SCC(=O)N(C)Cc2ccccc2)nnc1-c1ccncc1	0.2%	i	.
C=CCNC(=O)CCCOc1ccc(C)cc1	-4.3%	i	.
O=C(NCC1CCCCC1)c1ccco1	-3.2%	i	-0.53
C=CCn1c(N)c(C(=O)NC2CCCCC2)sc1=S	-2.4%	i	-1.1
O=S(=O)(NCC1CCCO1)c1ccc(Cl)c(C(F)(F)F)c1 (stereo unspecified)	0.4%	i	0.37
Cc1nnc(-c2cnn(C)c2N)n1Cc1ccc(Cl)cc1	-0.6%	i	.
Cc1cc(C)cc(C(=O)N(c2ccccn2)C(C)c2ccco2)c1 (stereo unspecified)	-0.4%	i	.
CC(CCc1ccco1)NC(=O)Nc1cccc(F)c1 (stereo unspecified)	-6.5%	i	-0.18
C=CCNC(=O)c1c(Cl)cccc1Cl	-0.7%	i	-0.68
CCOC(=O)CC(Nc1nc(N2CCOCC2)nc(N2CCOCC2)n1)c1ccccc1Cl (stereo unspecified)	-8.1%	i	-0.1
Cc1nn(CC#N)c(=O)n1-c1ccccc1	3.4%	i	.
CCOC(=O)c1c(N)sc2c1CCCC2	3.1%	i	0.3
CCCC(=Nc1ccccc1)C1=C(O)C(C(=O)OC)C(C)(C)CC1=O (stereo unspecified)	2.2%	i	0.36
C#C[C@]1(O)CC[C@H]2[C@@H]3CCc4cc(O)ccc4[C@H]3CC[C@@]21C	-1.9%	i	-0.48
O=C(O)c1cc(S(=O)(=O)N2CCCCCC2)c(Cl)cc1Cl	0.5%	i	1.3
COc1ccc(C(NC(=O)c2ccco2)c2ccc(OC)c(OC)c2)cc1 (stereo unspecified)	-4.8%	i	-0.3

(next part)
SMILES	Hsc70	MT1-MMP reporter	WNV NS2B-NS3 inh
CN1CCN(CC#CCn2c3ccccc3c3ccccc32)CC1	0.3%	i	-0.19
C=CCn1c(SCC(=O)NC2CCCCC2)nnc1C1CCCCC1	5.5%	i	.
O=C(OCC1OC2C(Oc3nc(=O)ccn32)C1O)c1ccccc1 (stereo unspecified)	2.2%	i	1.9
COc1ccc(OC)c(S(=O)(=O)N2CCc3ccccc32)c1	4.2%	i	-1.1
CC(=O)Nc1ccc2c(c1)nc(CCN1CCC(C)CC1)n2C	4.4%	i	.
c1ccc2[nH]c(CN3CCN(c4ncnc5c4oc4ccccc45)CC3)nc2c1	-4.7%	i	1.2
Cc1cccc(NC(=O)CSc2nnc(-c3cc(C)n(-c4ccccc4)c3C)o2)c1C	0.4%	i	-0.08

Bioassay records deposited in PubChem BioAssay by several laboratories.

Not all compounds are listed, so the mix of outcomes need not match the whole.
